# Source: PubChem (National Center for Advancing Translational Sciences (NCATS))
# PINK1 modulator = A Quantitative High throughput Screen to Identify Chemical Modulators of PINK1 Expression; PINK1 immunofluorescence, high-content cytometry, 24 h; Potency, µM (highest dose often 76.6 µM), for the others: top-dose activation (PINK1 increase), most hits filed as activators; actives 0.2% (n = 410,000); AID 624263, 2012; active = well fitted activation curve with a large enough effect; inconclusive = small, poorly fitted or top-dose-only effect; inactive = flat fitted curve, though single readings scatter; cell line not stated here;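 further: potency means the concentration at half of the fitted maximal effect; % of control where 0% means no effect; nearly all actives have a fitted effect of over 65% in size; a mitochondrial uncoupler was the plate control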
#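 PINK1 protein, normally rapidly degraded, was detected by immunofluorescence after 24 hour compound treatment of a stable cell line. Titration data (5 concentrations) came from laser-scanning cytometry, with CCCP-treated wells as controls.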
# TRPML1 ag = qHTS for Agonists of the Human Mucolipin Transient Receptor Potential 1 (TRPML1) | Mucolipin-1 (Homo sapiens), Q9GZU1 | TRPML1-expressing cells, Ca2+ dye fluorescence, FDSS; host cell line not named in the record; reference of the full effect not given here | activation, % (concentration not given with the values) | actives 0.12% (n = 410,000); in the data active = activation above about 50%; inconclusive = about 30% to 50%; inactive = below about 30%; further: 0% is about no effect; the text of the record puts the active cut at 80%
#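 Cells: TRPML1-DL, 1X Tet inducer, ~16 h at 37 degrees C/5% CO2. Dye: ABD Ca8 no-wash + quencher, 45-90 min RT. Read: 10 s baseline, compound add, 110 s agonist phase; 54-4 EC80 (4uM final), 110 s antagonist phase.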
# Sfp PPTase inh = qHTS Assay for Inhibitors of Bacillus subtilis Sfp phosphopantetheinyl transferase (PPTase) | AID 1490, 2009 | Biochemical Sfp PPTase activity, qHTS | actives 3.5% (n = 310,000) | Potency, µM, inactives show max response, negative = inhibition, usual class: inhibitors | 4'-phosphopantetheinyl transferase ffp (Bacillus subtilis), Q9F4F7; active means well fitted inhibition curve with a large enough effect; inconclusive means small, poorly fitted or top-dose-only effect, or another doubt; inactive means no such curve, though single readings can be large or run the other way;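 further: the enzyme is Sfp with the accession as filed and its product quenches rhodamine fluorescence; potency means the concentration at half of the fitted maximal effect; 0% = enzyme reaction without inhibitor and -100% = no enzyme wells; top concentration of the series not given in the record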
#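 Sfp 15 nM + cpd, 15 min RT; start w/ rhodamine-CoA 5 uM, BHQ-2-YbbR 12.5 uM (final); 50 mM Hepes pH 7.6, 10 mM MgCl2, 0.01% NP-40, 0.01% BSA; read 525/598 nm at 0 and 30 min.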
# TRPV1 potentiator = HTS Assay for Compounds that Act as Potentiators of the Vanilloid Receptor 1 | TRPV1-expressing cells, Fluo-8 calcium influx, capsaicin EC20 potentiation; host cell line not named in the record; control for the full effect not named in the record | potentiation, % at 8.33 µM | actives 0.02% (n = 320,000) | AID 540277, 2011; active means potentiation above 80%; inconclusive means 30% to 80%; inactive means below 30%; further: 0% is about no effect
# Target sequence (Q8NER1 whole entry, looked up): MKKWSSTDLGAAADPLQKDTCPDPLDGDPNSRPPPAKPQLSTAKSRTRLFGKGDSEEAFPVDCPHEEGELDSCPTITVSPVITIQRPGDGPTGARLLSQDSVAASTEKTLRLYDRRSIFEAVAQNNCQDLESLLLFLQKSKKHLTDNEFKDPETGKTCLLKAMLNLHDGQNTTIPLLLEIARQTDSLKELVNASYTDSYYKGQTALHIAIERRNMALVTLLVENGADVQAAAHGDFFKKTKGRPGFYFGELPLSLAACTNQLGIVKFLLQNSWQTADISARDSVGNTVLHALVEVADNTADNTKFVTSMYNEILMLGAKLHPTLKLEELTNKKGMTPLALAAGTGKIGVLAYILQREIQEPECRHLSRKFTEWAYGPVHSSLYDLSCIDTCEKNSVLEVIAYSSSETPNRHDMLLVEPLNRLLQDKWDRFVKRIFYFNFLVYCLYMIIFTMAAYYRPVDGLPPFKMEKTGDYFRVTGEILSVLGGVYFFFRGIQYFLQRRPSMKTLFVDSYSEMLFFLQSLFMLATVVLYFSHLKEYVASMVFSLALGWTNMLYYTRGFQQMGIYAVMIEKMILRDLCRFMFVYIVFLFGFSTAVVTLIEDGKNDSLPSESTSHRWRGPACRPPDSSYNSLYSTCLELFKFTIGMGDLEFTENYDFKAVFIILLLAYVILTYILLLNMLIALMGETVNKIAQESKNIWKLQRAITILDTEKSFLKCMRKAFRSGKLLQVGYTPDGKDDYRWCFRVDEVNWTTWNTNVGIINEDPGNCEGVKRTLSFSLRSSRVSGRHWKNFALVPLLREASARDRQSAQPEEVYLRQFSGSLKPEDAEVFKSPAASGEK
#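 Fluo-8 calcium influx in TRPV1-expressing cells, kinetic read (ex 480/em 520 nm). Compound added and read 3 min for agonist activity, followed by capsaicin at EC20 final and 2 min further read for enhancement.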
# TRPML1 blocker = qHTS for Inhibitors of the Human Mucolipin Transient Receptor Potential 1 (TRPML1); TRPML1-inducible cells, Ca2+ dye fluorescence, FDSS; stronger effect = lower value; inhibition of EC80 agonist-evoked calcium signal; actives 0.02% (n = 390,000); activity change, negative = inhibition, % (no concentration beside the values); AID 624415, 2012; in the data active means activity change below about -50%; inconclusive means about -30% to -50%; inactive means above about -30%;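 further: stimulus is agonist 54-4 at its EC80 concentration; on the % scale 0 is the no-effect control and ±100 the full control effect; compound concentration not given in the record; the text of the record puts the active cut at -80%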
#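 Calcium fluorescence in TRPML1-DL cells induced overnight with Tet: a 110 s read after compound pin addition, then a 110 s antagonist read after challenge with 54-4 at 4 uM final (EC80).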
# ClpP mod = qHTS Assay for Activators of ClpP; purified B. subtilis ClpP, FRET peptide cleavage, 20 min; Potency, µM (top dose mostly 57.5 µM), for inactives: at the top dose activity change, negative = active; actives 1.9% (n = 340,000); active = well fitted falling curve with a large enough effect; inconclusive = small, poorly fitted or top-dose-only effect; inactive = no such curve, though single readings can be large or run the other way; further: potency means the concentration at half of the fitted maximal effect; the source files actives as falling curves though it sought activators and does not explain the sign; nearly all actives have a fitted effect of over 65% in size; many hits overshoot -100%
# Target sequence (P80244 whole entry, looked up): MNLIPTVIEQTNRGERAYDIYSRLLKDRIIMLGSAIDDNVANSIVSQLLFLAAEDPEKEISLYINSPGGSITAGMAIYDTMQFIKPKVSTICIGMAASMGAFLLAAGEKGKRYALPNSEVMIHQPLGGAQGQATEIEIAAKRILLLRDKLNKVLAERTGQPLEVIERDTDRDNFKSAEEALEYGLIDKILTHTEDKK
#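 FRET quenching reversal measured ClpP activation: 10 microg/mL B. subtilis ClpP at pH 8 with the FRET-FV decapeptide, read at 430 nm after 320 nm excitation. The 20-min minus 0-min signal was scaled between DMSO/no-enzyme wells and ADEP (5.8 microM final).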
# Menin-MLL FL inh = qHTS Assay for Inhibitors Targeting the Menin-MLL Interaction in MLL Related Leukemias: Competition With Fluorescein Labeled MLL-derived Peptide | AID 1766, 2009 | 290,000 tested, under 10 active | Fluorescence polarization, fluorescein-MLL peptide displacement from menin | FP activity change, % at 61.4 µM; inconclusive = falling polarisation curve, or a change in total fluorescence; inactive = total fluorescence flat and polarisation flat or rising; no compound was filed as active; the % refers to the polarisation; negative = inhibition;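 further: % of control where 0% means no effect; inhibitors lower the polarisation; unlabelled MLL peptide was the positive control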
# The depositor's hits bear a star; ? = inconclusive; / = no result given; & = joins results of further samples; [ ] = another dose, or the depositor's remark.
SMILES,PINK1 modulator,TRPML1 ag,Sfp PPTase inh,TRPV1 potentiator,TRPML1 blocker,ClpP mod,Menin-MLL FL inh
COc1ccccc1/C=C/C1C(C(=O)OCC(C)C)=C(C)N=C2SCCC(=O)N21 (stereo not drawn),7.2%,-0.3,5.6%,4.6,-21.2,/,-0.2
CCOC(=O)C1=C(C)c2ccccc2N(S(=O)(=O)C(F)(F)F)C1C(=O)OCC (stereo not drawn),-1.6%,2.4,19.6%,/,56.6,-2.4%,1.0
CCN1CCN(S(=O)(=O)c2ccc(F)c(C(=O)Nc3c(F)cc(F)cc3Br)c2)CC1,0.9%,/,-0.7%,-5.8,/,0.1%,3.7
CCN(CC)CCNC(=O)CSc1nc2nc(C)c(Cc3ccccc3)c(C)n2n1,-2.3%,-0.5,/,/,3.5,-8.2%,/
O=C(CC1C(=O)NCCN1C(=O)c1ccc([N+](=O)[O-])cc1)Nc1ccc(F)cc1 (stereo not drawn),-0.5%,1.4,12.5%,3.4,-4.1,-0.8%,-0.1
COC(=O)Cn1nnc2c(cnn2-c2ccccc2)c1=O,-0.5%,-0.4,4.9%,-25.5,-17.9,-22.0%,5.5
O=C(CSc1ccc(-c2ccccn2)nn1)Nc1ccc(F)cc1F,1.4%&0.9%,1.4&1.0,-8.2%,1.1,11.8&1.4,-1.6%&-0.3%,/
CCCN1CCN(C(=O)c2oc3c(Cl)cccc3c2C)CC1,4.0%,-0.1,9.3%,-7.8,-5.6,/,5.5
N#Cc1cccc(NC(=O)CN2CCCCCC2)c1,1.1%,0.5,7.0%,-0.7,-8.7,/,/
CC(=O)Nc1ccc(S(=O)(=O)N2CCC(C(=O)NCCC(=O)Nc3ccccc3)CC2)cc1,3.7%,-0.6,8.0%,-2.2,-10.2,0.8%,7.2
C[N+](C)(CCOc1ccccc1)Cc1ccccc1 (tested in a mixture with another compound),-3.3%,1.8,-10.8%,11.5,23.3,134.6%,/
CC(C)N(CCCNC(=O)c1nn(C)c2c1CS(=O)(=O)c1ccccc1-2)Cc1ccccc1,0.1%,1.1,4.1%,6.4,10.8,-4.3%,/
CC(C)(C)c1ccccc1NC(=O)Nc1nc(C(N)c2ccccc2Cl)cs1 (stereo not drawn),7.8%,0.1,/,/,/,1.1%,/
NC(=O)C1=C(N)c2ccccc2C1c1ccccc1 (stereo not drawn),-3.8%,1.4,/,/,-7.0,?,/
CC(c1ccccc1)N(C)CC(=O)NC(=O)NCCC1=CCCCC1 (stereo not drawn),1.3%,-0.6,/,-11.0,-11.7,-0.4%,/
C/C(=N\NC(=S)NC(C)C)c1ccc(C(C)(C)C)cc1,?,3.7,7.4%,-8.9,0.7,-1.6%,-5.3
O=C(CCn1nc(-c2ccc(Cl)cc2)ccc1=O)NCCCN1CCCCCC1,-0.8%,-0.7,-13.0%,-12.4,3.2,-18.1%,3.3
Cc1cc(NC(=O)c2ccco2)sc1C,1.8%,-0.4,/,3.6,-5.5,-0.5%,/
C/C(=N/NC(=O)C1COc2ccccc2O1)c1ccc(Br)s1 (stereo not drawn),6.0%,-0.4,15.7%,-2.5,-2.7,0.5%,-1.5
COc1ccc(CCNS(=O)(=O)c2ccc(-n3cnnn3)cc2)cc1OC,1.2%,-0.3,-3.6%,-1.0,19.0,/,-0.4
CC1=C(C(=O)Nc2ccccc2)C(c2ccncc2)C(C#N)=C(SCC(=O)NC2CC2)N1 (stereo not drawn),-1.6%,0.8,11.2%,-8.6,-0.8,3.6%,-0.8
Cc1ccc(C(=O)c2ccc(N3CCN(C)CC3)c([N+](=O)[O-])c2)cc1,1.5%,0.1,2.4%,-6.6,-1.8,1.5%,-0.2
CN(C)C(=O)CSc1nc(SCC(=O)N(C)C)n(-c2ccccc2)n1,2.8%[38.3 µM],0.5,12.9%,-12.1,-19.2,-0.5%,1.5
COc1ccc(Cn2nnnc2C(c2ccc3ncccc3c2)N2CCN(C3CCCCC3)CC2)cc1 (stereo not drawn),1.7%,0.2,10.3%,-4.7,10.3,1.1%,/
COc1cc(CCC(=O)OCC(=O)Nc2nc(C)c(Cl)cc2Cl)cc(OC)c1OC,/,0.8,5.3%,10.2,7.1,-1.3%,2.3
CCOc1ccc(CN(C)C(=O)CCN2C(=O)c3ccccc3C2=O)cc1OC,-0.4%,-0.5,13.5%,-28.6,1.2,/,-2.6
CCOC(=O)c1cnc(Cc2ccccc2)[nH]c1=O,0.4%,10.8,10.1%,-18.6,-10.5,-1.2%,-4.9
O=C1CCC(=O)c2oc3ccccc3c2N1,-0.7%,0.1,11.9%,-1.7,2.9,?,1.2
COc1ccc(N(CC(O)Cn2c(C)nc3ccccc32)S(=O)(=O)c2ccc(C)cc2)cc1 (stereo not drawn),10.4%,-0.4,2.9%,3.7,36.9,0.8%,-0.1
Cc1ccc(C)n1CCN1CCN(C(=O)CSc2nc3ccccc3nc2N2CCOCC2)CC1,2.3%,1.1,19.1%,?,-10.4,-7.0%,5.4
O=C(NCCC1=CCCCC1)C(=O)NCC(c1ccco1)N1CCN(c2ccc(F)cc2)CC1 (stereo not drawn),?,2.7,16.7%,5.7,59.1,1.5%,3.0
O=C(CC1NCCNC1=O)OCCCc1ccccc1 (stereo not drawn),0.6%,-0.6,2.2%,/,7.4,-0.4%,-2.4
CCNc1nc(NCC)n2c(SCC(=O)Nc3ccc(CC)cc3)nnc2n1,-0.5%,0.3,/,6.6,27.1,-1.0%,/
c1ccc2[nH]c(-c3cnco3)cc2c1,-0.8%,0.5,14.7%,-6.8,7.7,3.8%,4.6
CCCCC(=O)Nc1ccc(NC(=O)c2ccc([N+](=O)[O-])cc2Cl)cc1OC,7.4%,3.2,11.5%,-6.1,-0.6,0.5%,-1.0
C=CCNC(=O)c1onc(CSc2ccc(F)cc2)c1C(=O)NCCOC,0.3%,-0.8,10.9%,-12.9,33.1,-6.2%,0.7
CN(C)S(=O)(=O)c1ccc(C(=O)OCC(=O)NCc2ccccc2)cc1,0.7%,-0.6,15.9%,-7.4,-3.4,1.7%,-3.9
O=C(NCc1ccc(F)cc1F)[C@@H]1CCCN1C(=O)[C@@H]1CCCN1C(=O)c1cccs1,0.1%,-0.9,/,/,/,0.0%,/
Cc1cccc(NC(=O)CNC(=O)CCc2nc3sc4c(c3c(=O)[nH]2)CCCC4)c1C,25.4%,-0.1,/,-2.5,-3.8,-23.8%,/
CCN(CC)c1ccc(NC(=O)C2CCC(CNc3c(N4CCCC4)c(=O)c3=O)CC2)c(C)c1 (stereo not drawn),1.6%,-0.9,5.1%,6.1,1.2,0.5%,-3.5
CCN(CC(=O)Nc1c(F)cccc1F)C(=O)c1ccc(S(=O)(=O)N2CCC(C)CC2)cc1,2.3%,2.2,/,-0.2,8.3,0.2%,/
COc1ccc([C@@H]2CC=C(C(=O)O)[C@H](c3ccc(C(C)(C)C)cc3)N2S(=O)(=O)c2ccc(C)cc2)cc1OC,-0.1%,0.2,/,/,-1.1,-1.5%,/
CCc1ccc(/C=C2/SC(=S)N(CCC(=O)Nc3cccnc3)C2=O)cc1,13.1%,-0.4,0.7%,-15.3,7.5,2.5%,?
COc1ccccc1CNC(=O)C1CCN(c2nc3ccc(Cl)cc3[nH]2)CC1,-0.3%,1.5,/,/,-6.0,0.6%,/
COC(=O)C1=C(C)NC(C)=C(C(=O)OCC2CCCO2)C1c1cccc(Br)c1 (stereo not drawn),1.9%,2.4,3.0%,-12.4,7.8,?,/
O=C(NN1C(=O)c2ccccc2NC1c1ccco1)c1ccccc1 (stereo not drawn),-0.3%,0.0,8.6%,-1.2,-21.2,/,-2.6
CCOc1ccc(N2CC(C(=O)NCCC3=CCCCC3)CC2=O)cc1 (stereo not drawn),?,-0.2,8.4%,-3.1,0.9,1.3%,7.5
COc1cc(/C=N/N=C2\CC3CCC2(C)C3(C)C)ccc1O (stereo not drawn),-1.2%,0.9,-0.3%,16.8,4.5,-8.8%,6.6
COc1ccc(CCN(C)C(=O)c2ccc(S(=O)(=O)Nc3ccccc3F)cc2)cc1OC,-0.1%,-0.4,/,/,11.1,-13.3%,/
O=C(Cn1c(=O)n(Cc2ccco2)c(=O)c2ccccc21)Nc1cccc(Cl)c1,0.5%,0.2,?,?,21.3,-1.5%,4.2
O=S(=O)(c1ccccc1F)N(Cc1ccco1)Cc1nnc(-c2ccccc2Br)o1,-2.7%,0.7,-5.8%,6.1,28.5,-0.6%,3.0
NCCc1nnc(SCC(=O)c2ccc(Cl)cc2)o1,2.5%,-0.4,56.2µM*,-12.8,20.2,0.8%,5.2
O=C(c1cccc(S(=O)(=O)N2CCOCC2)c1)N1CCN(C/C=C/c2ccccc2)CC1,-1.1%,-0.5,/,-13.7,-1.4,-1.0%,/
COc1ccc(CNC(=O)Oc2ccccc2)cc1Cl,-1.4%,-0.5,-1.7%,-3.9,-4.2,1.4%,2.7
CC(=O)NNc1nc(-c2ccc(NC(C)=O)cc2)cs1,-0.6%,2.0,50.1µM*,-3.3,33.9,-1.6%,5.7
O=C(Nc1nc(-c2ccccc2)c(-c2ccccc2)s1)c1ccc(S(=O)(=O)N2CCCC2)cc1,3.9%,-0.4,13.2%,5.5,12.5,-0.2%,1.2
O=C1C2ON(c3ccccc3)C(c3cccnc3)C2C(=O)N1Cc1ccccc1 (stereo not drawn),-3.4%,-0.3,5.8%,-20.4,2.8,0.3%,2.5
CC(C)NS(=O)(=O)c1ccc(OCC(=O)Nc2cccc(F)c2)cc1,-0.3%,1.3,11.5%,-11.4,5.1,0.5%,0.8
O=C(N1CCOCC1)C1(c2ccc(Cl)cc2)CCCC1,-0.3%,0.5,4.1%,-12.5,21.3,1.2%,1.5
